PABP polyA inh = blocks human PABP binding to poly(A) RNA. P11940. fluorescence polarization. inhibition, % at 35 µM. actives 1% (n = 290,000);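 active = 50% or more with normal probe brightness, or confirmed in later tests; inconclusive = above 50% with abnormal brightness, or retests that disagree; inactive = below 50% or failed in later tests; about a fifth of its hits are not listed in these tables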;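 also: calls also rest on retests at 20 µM and on dose response follow-up; controls were probe without protein and protein plus probe with vehicle; some compounds called inactive have numbers as strong as hits; many hits fall short of the cut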
Target sequence (P11940 whole entry, looked up): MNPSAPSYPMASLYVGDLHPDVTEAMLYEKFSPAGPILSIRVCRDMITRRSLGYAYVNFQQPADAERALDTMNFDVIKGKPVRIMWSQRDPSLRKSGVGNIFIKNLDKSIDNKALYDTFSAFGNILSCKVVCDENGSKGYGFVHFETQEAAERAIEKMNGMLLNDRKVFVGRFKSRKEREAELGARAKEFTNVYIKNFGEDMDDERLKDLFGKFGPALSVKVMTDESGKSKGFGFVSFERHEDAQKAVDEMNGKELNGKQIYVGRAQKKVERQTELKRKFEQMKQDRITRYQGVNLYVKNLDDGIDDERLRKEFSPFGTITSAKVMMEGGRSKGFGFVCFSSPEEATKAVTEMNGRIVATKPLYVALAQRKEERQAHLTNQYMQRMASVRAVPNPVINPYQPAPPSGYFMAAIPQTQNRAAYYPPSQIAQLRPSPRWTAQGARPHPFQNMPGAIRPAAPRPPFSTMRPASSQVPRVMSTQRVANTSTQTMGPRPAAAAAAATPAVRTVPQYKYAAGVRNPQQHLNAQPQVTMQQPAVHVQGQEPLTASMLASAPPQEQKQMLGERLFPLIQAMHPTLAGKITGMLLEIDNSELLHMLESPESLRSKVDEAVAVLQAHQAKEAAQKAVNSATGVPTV
UUG fidelity = alters start codon recognition fidelity in yeast | S. cerevisiae UUG-firefly luciferase reporter, luminescence/redox ratio | activity score, % at 18.7 µM | actives 0.13% (n = 350,000) | AID 602363;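 active = replicate mean at a twofold rise or more, about +100% in these data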;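 also: firefly luciferase made from a UUG start codon reports start codon fidelity; reporter light over untreated wells divided by growth signal over untreated wells; some hits fall short of that in this replicate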
Env fusion inh = HIV envelope-mediated fusion inhibition | actives 1.1% (n = 360,000) | inhibition, % at 12.3 µM | HeLa-JRFL Env/CEM21 cell fusion, luciferase;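 active = mean replicate inhibition score of at least 50 and every replicate individually at or above 50; inconclusive = only one of the two criteria met; inactive = mean below 50 and not all replicates reaching 50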;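 also: 0% = plate neutral controls and 100% = maraviroc near 300 nM; one replicate is shown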
MT1-MMP act inh = MT1-MMP (human) activation inhibition. HT1080 RFP-PRO-GFP cells, GFP/RFP ratio fluorescence, overnight; percent of plate control window, DMSO zero. P50281. actives 0.061% (n = 360,000). AID 651647. GFP/RFP ratio change, % at 20 µM;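 active = GFP/RFP ratio change of at least 30% with cell ATP level not reduced by more than half and red fluorescence within 50% of control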; also: strong numbers were not always called active
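Assay system: RFP-PRO-GFP reporter HT1080 cells; read-out basis: GFP/RFP fluorescence ratio; benchmarks: DMSO wells and RFP-L50D-GFP cells; doses: 20 µM single dose, 1% DMSO; schedule: overnight cell settling, then overnight compound exposure, 37 °C, 5% CO2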
Rce1 inhib = inhibitors of yeast Ras-converting enzyme. calls only. actives 0.27% (n = 290,000). Q03530. AID 2563. yeast membranes, quenched prenylated peptide cleavage fluorescence;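 active = fall in fluorescence gain of 50% or more versus controls, with final raw signal at or below 3038400; inconclusive = same 50% fall but final raw signal above 3038400; inactive = fall in fluorescence gain under 50%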;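 also: plate controls were neutral control wells for no effect and wells lacking membranes for full effect; tested at 10 µM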
Target sequence (Q03530 whole entry, looked up): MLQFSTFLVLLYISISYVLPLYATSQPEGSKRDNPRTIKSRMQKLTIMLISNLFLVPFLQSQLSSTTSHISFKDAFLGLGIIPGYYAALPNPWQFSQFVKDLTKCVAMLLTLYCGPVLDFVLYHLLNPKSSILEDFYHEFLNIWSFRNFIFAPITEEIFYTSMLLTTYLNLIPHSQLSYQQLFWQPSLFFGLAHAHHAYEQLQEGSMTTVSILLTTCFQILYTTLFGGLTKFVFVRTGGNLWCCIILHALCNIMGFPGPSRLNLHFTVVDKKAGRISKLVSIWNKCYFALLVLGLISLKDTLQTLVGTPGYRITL
CSC inhib = blocks cancer stem cells; cancer stem cell-like cells viability, luminescence; actives 1.1% (n = 300,000); inhibition, % at 7.5 µM;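 active = mean at 75% or more and at least half the replicates too; inconclusive = mean and replicates disagree; tested in HMLE shEcad cells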;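 also: 0% = median of negative and 100% = median of positive control wells; the first replicate is given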
eIF4H inh = inhibitors of RNA binding by human eIF4H | Q15056 | eIF4H fluorescence polarization binding assay | inhibition, % at 35 µM | actives 0.94% (n = 290,000) | AID 2012;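 active = 50% or more with normal probe brightness, or confirmed in later tests; inconclusive = above 50% with abnormal brightness, or retests that disagree; inactive = below 50% or failed in later tests; about a fifth of its hits are not listed in these tables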;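 also: calls also rest on retests at 20 µM and on dose response follow-up; 0% = protein and probe with vehicle and 100% = probe without protein; strong numbers were not always called active; many hits fall short of the cut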
eIF4H inh retest = recorded beside eIF4H inh, whose call it bears; inhibition, %; compound at 20 µM; confirmation average;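 mean of two retest wells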
PABP polyA inh retest = recorded beside PABP polyA inh, whose call it bears; inhibition, %; compound at 20 µM; confirmation repeats;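 mean of two retest wells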
MT1-MMP act inh RFP = further read-out of MT1-MMP act inh, marked with its call; RFP signal change, %; measured here: RFP expression control read;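 0 = vehicle wells; hits needed this value within 50% of zero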
Active calls of the source: *; i = inactive; ? = inconclusive; · = not tested or not shown; & = joins results of further samples; [ ] = dose if it differs, or a comment. Rows were taken by chance. Share with any hit: about 2.9%.

SMILES	PABP polyA inh	UUG fidelity	Env fusion inh	MT1-MMP act inh	MT1-MMP act inh RFP	Rce1 inhib	CSC inhib	eIF4H inh	others
CC(=O)O[C@H]1CC[C@@]2(C)C(=CC[C@H]3[C@@H]4CC[C@H](C(C)=O)[C@@]4(C)CC[C@@H]32)C1	·	6	2	3	-6	i	-2	·
c1cc(CN2CCCCC2)cc(OCCCNc2nc3ccccc3s2)c1	·	-11	14	-1	-1	i	16	·
CCCCCNS(=O)(=O)c1cc2c3c(c1)CCC(=O)N3CCC2	5	-4	-1	2	-5	i	2	3
O=C(/C(=C/O)N=Nc1ccc(Cl)cc1)c1ccncc1	-13	·	·	3	-2	i	77*	-14
C/C(=N\NC(=O)COc1ccc(C(C)(C)C)cc1)c1ccc(OC(F)F)cc1	2	·	-35	4	0	i	1	3
O=C1CCCC2=C1C(c1ccccc1)CC(=O)N2c1ccccc1 (centres undefined)	1	-7	·	0	1	i	-3	-3
CC(=O)CC(=O)Nc1ncc(C(F)(F)F)cc1Cl	-7	·	-9	6	-6	i	-4	-8
Cc1ccc(Cn2c(=O)n(Cc3ccco3)c(=O)c3ccccc32)cc1	-7	-19	·	-8	-10	i	-8	-8
Cc1ccc(N2C(=O)C(Cc3ccccc3)NC2=S)cc1 (centres undefined)	2	-11	·	9	1	i	-17	0
O=C(Nc1cccc(F)c1)c1c(F)c(F)c(F)c(F)c1F	-3	-25	-45	-2	-4	i	12	5
Cc1cc([N+](=O)[O-])nn1CCCC(=O)O	-9	-13	3	2	3	i	-3	3
NNc1nc(Nc2ccccc2)nc(N2CCCCC2)n1	-6	-25	·	4	-5	i	13	5
CC(=O)NC(c1ccccc1)c1nc(-c2cccc(CO)c2)cs1 (centres undefined)	·	-9	11	3	-2	·	·	·
C=CCn1c(SCC(=O)N2CCc3ccccc3C2)nc2sc(C)cc2c1=O	-14	-15	·	-10	-28	i	-11	-9
O=C(Cn1ncc2c3ccccc3n(Cc3ccccc3)c2c1=O)NCc1ccccn1	8	-23	8	-1	2	i	-9	-4
Cc1ccc(NC(=O)CSc2ccccc2NC(=O)c2ccccc2)cc1Cl	-2	13	-8	-4	-5	i	-10	4
O=C(CCN1CCc2ccccc2CC1)c1ccc2c(c1)OCCO2	3	-12	16	-1	4	i	38	-6
COC(=O)C1=C(NC(=O)c2ccc(C)cc2)CCS1	3	7	2	12	-2	i	-4	-4
CCCN(C)C[C@H]1Oc2ncc(Br)cc2C(=O)N([C@@H](C)CO)C[C@@H]1C	·	-37&-3&5	2&-3[16.7 µM]	-2	2	·	·	·
N#Cc1ccc[n+](CC(=O)c2ccc(Cl)cc2)c1	?	-13	16	-22	2	i	-6	?
COc1ccc(/C=N/N=C2/NC(=O)C(c3ccccc3)(c3ccccc3)S2)cc1	-5	-8	·	4	0	i	15	-8
CC(C)Oc1cc2oc(=O)c3c(c2cc1Cl)CCC3	4	-25	·	2	2	i	-21	-12
CCN(CC(=O)NC1CCCC1)S(=O)(=O)c1ccc(C)cc1	-7	4	·	16	3	i	-4	-4
COc1ccc(C(=O)Nc2ccc(S(=O)(=O)Nc3cc(C)nc(C)n3)cc2)c(OC)c1	7	-4	·	-4	-5	i	23	6
Cc1cc(C)c(-n2c(C)cc(/C=C3/NC(=O)NC3=O)c2C)c(C)c1	-1	·	·	·	·	i	-20	-12
Cc1cc(/C=C(\C#N)C(=O)O)c(C)n1CC(C)C	-2	·	12	1	-1	·	7	0
Cc1csc2ncnc(NCCc3ccccn3)c12	8	·	21	-5	-27	·	-9	10
O=C(CN1C(=O)CNC1=O)Nc1cccc(C(F)(F)F)c1	-7	-24	-11	3	6	i	-10	-9
CCOC(=O)C1(CC2CCCCO2)CCN(C(=O)NCc2ccccc2)CC1 (centres undefined)	-6	·	9	2	3	·	-1	6
COc1ccc(-n2c(SCc3ccc([N+](=O)[O-])cc3)nnc2-c2ccccc2)cc1	1	·	·	-2	-4	i	-2	-1
COC(=O)c1ccc(N2C(=O)Nc3ccccc3N2O)cc1	13	·	-2	2	5	i	-1	2
O=C(OCC(=O)N1CCCc2ccccc21)c1c(F)cccc1F	·	-9	-9	1	4	i	-6	·
CCc1nc(N)c(C#N)c(-c2ccc(OC)c(OC)c2)c1C	-9	-4	-31	7	10	i	1	-3
O=C(c1cccc([N+](=O)[O-])c1)N1CCCC(C(=O)N2CCCCC2)C1 (centres undefined)	-6	·	-12	2	3	i	-8	11
Cc1ccc(C)c2[nH]c(=O)c(CN(Cc3ccc4c(c3)OCO4)Cc3nnnn3Cc3ccco3)cc12	11	-12	·	-11	-14	i	-2	43
COc1ccc(OCC(O)CNC(=O)Nc2cc(F)ccc2C)cc1 (centres undefined)	-8	·	10	0	1	i	-1	-3

Brought forward from above: two entries, followed by the next part.
SMILES	PABP polyA inh	UUG fidelity	Env fusion inh	MT1-MMP act inh	MT1-MMP act inh RFP	Rce1 inhib	CSC inhib	eIF4H inh	others
Cc1ccc(C)c2[nH]c(=O)c(CN(Cc3ccc4c(c3)OCO4)Cc3nnnn3Cc3ccco3)cc12	11	-12	·	-11	-14	i	-2	43
COc1ccc(OCC(O)CNC(=O)Nc2cc(F)ccc2C)cc1 (centres undefined)	-8	·	10	0	1	i	-1	-3
COc1ccccc1NC(=O)CNC(=O)CC12CC3CC(CC(C3)C1)C2	·	-12	11	-1	-3	·	-22	·
COc1ccc(C(=O)N2CCC(C)(C(=O)O)C2)cc1OC (centres undefined)	·	-9	-18	-1	2	·	·	·
Cc1nc2nc(-c3cccnc3)nn2c(C)c1Cl	-4	-20	-480	-2	2	i	-11	-5
Cc1[nH][nH]c(=O)c1C(c1c(C)[nH][nH]c1=O)c1cn(Cc2ccccc2Cl)c2ccccc12	5	4	·	0	2	i	·	-3
O=C(NCCc1ccccc1)C1CC(=O)N(C2CCCCCC2)C1 (centres undefined)	13	·	·	-1	4	i	-7	3
C=CCn1nc2n(c1=O)-c1ccccc1SC2	3	·	-5	1	7	i	7	1
O=S(=O)(c1c(F)cccc1F)N(CCc1ccc(F)cc1)C[C@@H](O)COCc1ccccc1	·	-8	-15	0	-4	·	·	·
CN(C)c1nc2c(c(N)nn2-c2ccc(Cl)cc2)c(=O)o1	18	-19	-71	9	4	i	6	-10
COc1cccc2c(Cl)c(CC=C(Cl)Cl)c(C)nc12	1	-13	8	-4	-11	i	·	-6
O=C1CSCN1c1ccc(Cl)c(Cl)c1	4	-14	-22	3	3	i	-21	-2
COc1ccc2c(CCNC(N)=S)c[nH]c2c1	-3	-20	-2	4	4	i	-3	0
Cc1ccc(NC(=O)Cn2cc(C=O)c3ccccc32)cc1	4	-10	22	-3	-20	i	-12	-1
CCCN(c1ccc(C(=O)OC)cc1)S(=O)(=O)c1ccccc1	6	-14	-6	-2	4	i	-23	-3
COc1cc(OC)cc(C(=O)NCC2CCCO2)c1 (centres undefined)	-1	·	·	-5	0	i	·	-3
O=C(O)CCc1ccc(S(=O)(=O)NCCc2ccccc2)cc1	1	·	-3	3	3	i	-8	-16
O=S(=O)(Nc1c(O)ccc2ccccc12)c1cccc2ccccc12	·	-12	·	3	4	i	33	·
Cc1nnc(SCC(=O)N(C)Cc2ccccc2)[nH]c1=O	-5	-15	·	2	3	i	11	3
CCOC(=O)c1nnn(CC(=O)N2N=C(c3ccccc3)CC2c2ccccc2)c1C(=O)OCC (centres undefined)	-4	-25	-13	·	·	i	11	2
CCCCCCN1CCN(C2CN(CCCC)S(=O)(=O)C2)CC1 (centres undefined)	·	-5	-14	6	7	·	·	·
COc1ccc(C2C(C(=O)OC3CCCCC3)=C(C)Nc3nnnn32)c(OC)c1OC (centres undefined)	8	·	·	-8	-11	i	-3	-3
Cc1cc(C)cc(NC(=O)c2ccc(CSc3nnnn3C)cc2)c1	3	10	·	-2	-7	i	3	7
CS(=O)(=O)N(CC(=O)Nc1ccccc1C(=O)NCCc1ccccc1)c1ccc2c(c1)OCCO2	10	1	20	-7	-4	i	1	-11
O=C(CCSc1ccc(Cl)c(Cl)c1)NC12CC3CC(CC(C3)C1)C2	5	-15	?	-1	-5	i	13	-1
CN1OC[C@@H]2CN[C@H](c3ccc(-c4cccc(F)c4)cc3)C[C@@H]21	·	-18	-13	2	4	·	·	·
C=CCNC(=O)CC(=O)N/N=C/c1cccc(C)c1	3	·	18	1	2	i	-15	-1
CCS(=O)(=O)Nc1cccc(C2=NN(S(C)(=O)=O)C(c3cccs3)C2)c1 (centres undefined)	-5	1	4	-21	0	i	-17	-4
Cc1ccc(NC(=O)C2C(c3ccccc3)C=CC(c3ccccc3)C2C(=O)O)cc1 (centres undefined)	-7	-4	·	8	-1	i	9	0
Cc1nnc(-c2cnn(-c3ccccc3)c2N)n1Cc1ccc(F)cc1	5	-17	-19	7	2	i	3	-4
Cn1nnnc1SCc1nc2ccccc2s1	2	-63	·	-1	6	i	-2	-7
CCOc1ccc(S(=O)(=O)Nc2ccccc2SC)cc1	1	8	41	·	·	i	·	1
O=C(CC1S/C(=N/N=C/c2ccco2)NC1=O)Nc1cccc(Cl)c1Cl (centres undefined)	54	·	-37	·	·	i	-19	4	eIF4H inh retest=19;PABP polyA inh retest=25
COc1ccc(CN2CCN(Cc3ccc(C(F)(F)F)cc3)CC2)cc1	1	-14	11	8	-6	i	18	-1
CC(C)(C)n1nnnc1C(c1ccncc1)N1CCCCCC1 (centres undefined)	-3	-3	-18	0	-1	i	-20	-4
COc1ccc(C)cc1-n1c(-c2ccncc2)n[nH]c1=S	-7	-13	20	2	4	·	-3	-6
COc1ccc(CCn2c(=O)[nH]c3cc(C(=O)N4CCN(c5ccccc5)CC4)ccc3c2=O)cc1OC	0	·	22	1	-13	i	3	-8
Cc1c(C(=O)NC2CCCCC2)sc2ncnc(N3CCN(c4ccccc4)CC3)c12	5	-17	2	-3	-5	i	-14	5
Cn1cc([N+](=O)[O-])c(C(=O)NNC(=O)c2ccc([N+](=O)[O-])cc2)n1	4	·	8	1	0	i	-6	3
Cc1ccc(CSc2nsc(C)c2C#N)cc1	-8	-17	-7	3	3	i	9	-3
O=C(Nc1cccn2ncnc12)c1cccc(C(F)(F)F)c1	-6	-23	-4	1	-5	i	10	-4
COc1ccc(-c2cnc(N)n2C)cc1	0	-14	10	3	2	i	-8	3
Cc1nn2c(c1-c1ccccc1)N=C(c1ccco1)CC2c1ccccc1 (centres undefined)	0	-22	-17	-31	-1	i	7	1
CCOC(=O)c1cnc(SCC(=O)Nc2ccc(N3CCOCC3)c(Cl)c2)nc1N	0	-5	2	3	1	i	5	-11
Cc1ccc(S(=O)(=O)NCC(=O)NNC(=O)c2ccccc2Cl)cc1C	·	-12	-4	-3	2	·	6	·
O=C(Cn1nnc(-c2ccccc2)n1)Nc1cccc(S(=O)(=O)N2CCCC2)c1	·	-7	·	3	-8	i	1	·
NC(=O)c1ccccc1N/C=C/C(=O)c1ccc(F)cc1	2	-12	-359	0	5	i	·	4
CCOC(=O)C(=NC1CCCCC1)NNc1cccc(C(F)(F)F)c1	-8	-21	·	-1	5	i	43	-14
COc1cccc(-n2nnnc2SCC(=O)Nc2nc3c(s2)CCCC3)c1	-2	-21	·	9	-8	i	4	-1
N#Cc1cc2c(nc1SCC(=O)O)CCCC2	-2	-14	-22	-2	2	i	·	-20
Cc1cc(OCCn2ccnc2)ccc1C(C)C	4	-21	·	-3	-4	i	5	2

Bioassay records from PubChem BioAssay.
